Bfl-1 A1 inh: caspase 3/7 activation in MEF A1-2A-BIM cells, primary screen, A1 inhibitor project, cell-based, luminescence, HTS. Caspase-Glo 3/7 luminescence, 3 h; percent of clofoctol response, vehicle zero. caspase activation, % (no concentration beside the values). 330,000 tested, 0.066% active. AID 2462, 2010;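 active = over half of replicate activation scores above 10%, or exactly half above 10 with the replicate mean above 10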;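 note: wells of about 30 µL received 50 nL stock; many hits fall short of the cut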
Beta apoptosis: inhibitors of cytokine-induced beta cell apoptosis, primary screen, luminescence; INS-1E cytokine-induced death, ATP luminescence, 48 h; percent of positive-control rescue, neutral wells zero; protection from apoptosis, % (concentration not given with the values); 300,000 tested, 0.8% active;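 active = all replicates at 75% or more, or half of them and the mean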;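 note: 0% = cytokine-treated negative control wells and 100% = positive control rescue; higher means more ATP so stronger rescue from cytokine killing; wells of about 40 µL received 100 nL stock; the first replicate is given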
rRNA inh HTS: reduced GFP signal of wild-type E. coli, primary screen, bacterial rRNA inhibitor project, GFP/RFP fluorescence, OD600, single point; E. coli WT GFP vs humanized-ribosome RFP mutants, 24 h; hits give low values; DMSO median 0, no signal -100; AID 720706, 2013; 350,000 tested, 1.6% active; GFP signal change (wild-type ribosome), % (no concentration beside the values);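 active = significant combined selectivity score with lowered wild-type GFP, culture density cut under 30%, mutant RFP and density less affected; inactive = any of these conditions unmet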; note: one replicate is shown; some compounds called inactive have numbers as strong as hits
LANA-H2A inh: blockers of LANA interaction with H2A/H2B – biochemical, FP readout, HTS, primary screen; cell-free LANA-H2A/H2B peptide, fluorescence polarization; inhibition, % (test concentration not listed); 320,000 tested, 0.6% active; in the data active = inhibition mostly above about 10%, no sharp cut-off; inactive = mostly below about 6.7%;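 note: stock transfer was 7.5 nL into about 10 µL; 0% = median of vehicle wells and 100% = median of positive control wells; one replicate is shown; the record names a cut of 25% in any replicate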
ALR H2O2 inh: inhibitors of human ALR sulfhydryl oxidase, primary screen, biochemical, H2O2 detection, HRP-luminol luminescence, single point | FAD-linked sulfhydryl oxidase ALR (Homo sapiens), P55789 | purified ALR, DTT oxidation | inhibition, % (test concentration not listed) | 290,000 tested, 3.8% active | AID 485317, 2010;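 active = mean and each replicate at 75% or more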;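 note: stock transfer was 7.5 nL into about 7.5 µL; 0% = neutral wells and 100% = wells with inactivated enzyme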
Target sequence (P55789 whole entry, looked up): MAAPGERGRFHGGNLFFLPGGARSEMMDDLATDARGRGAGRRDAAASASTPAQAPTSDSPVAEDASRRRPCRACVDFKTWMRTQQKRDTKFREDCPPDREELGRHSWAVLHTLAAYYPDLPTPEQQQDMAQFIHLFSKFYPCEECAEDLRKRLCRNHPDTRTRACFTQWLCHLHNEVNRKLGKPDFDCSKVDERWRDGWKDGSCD
B2AR ag: beta2AR agonists driving receptor internalization, primary screen, cell-based, FAP fluorogen, flow cytometry. Beta-2 adrenergic receptor (Homo sapiens), P07550. Am2.2-beta2AR cells; reference of the scale not given here. response, % (no concentration beside the values). 340,000 tested, 0.43% active;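 active = response above a set limit, near 3 SD of response in nonfluorescent compounds, cut at about 42% in these data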;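 note: stock transfer was 100 nL into about 11 µL; a reference agonist was the positive control; negative values mostly stem from fluorescent compounds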
Target sequence (P07550 whole entry, looked up): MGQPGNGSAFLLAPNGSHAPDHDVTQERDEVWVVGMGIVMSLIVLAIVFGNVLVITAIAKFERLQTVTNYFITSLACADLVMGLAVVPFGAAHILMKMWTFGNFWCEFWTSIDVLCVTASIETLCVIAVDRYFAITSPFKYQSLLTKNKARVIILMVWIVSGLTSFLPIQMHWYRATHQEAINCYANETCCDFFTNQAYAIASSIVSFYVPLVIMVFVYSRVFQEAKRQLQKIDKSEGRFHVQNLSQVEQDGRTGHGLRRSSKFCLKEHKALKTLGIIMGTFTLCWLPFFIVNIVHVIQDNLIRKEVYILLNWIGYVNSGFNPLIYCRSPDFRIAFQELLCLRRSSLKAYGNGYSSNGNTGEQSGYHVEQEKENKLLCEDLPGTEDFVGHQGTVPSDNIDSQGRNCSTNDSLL
T cruzi repl: inhibitors of intracellular T. cruzi growth, primary screen, luminescence, NIH3T3 host cells; T. cruzi beta-gal in NIH3T3, 90 h; inhibition, % (concentration not given with the values); 300,000 tested, 1.4% active; AID 1885, 2009;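 active = mean inhibition across valid replicates above about 55%, limit read from the data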;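 note: signal also drops with host cell toxicity which is not excluded here; 0% = plate median of DMSO wells and 100% = zero luminescence signal; higher percent means less beta-gal luminescence so fewer parasites; stock transfer was 50 nL into about 50 µL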
Calb FLC: C. albicans growth inhibition with fluconazole, primary screen, CaCi-2 strain, Alamar Blue fluorescence | AID 1979, 2009 | 300,000 tested, 0.57% active | C. albicans CaCi-2 (fluconazole-resistant clinical isolate) + fluconazole, 48 h | growth inhibition, % (no concentration beside the values);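 active = most replicates above 75%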;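 note: all wells also contain fluconazole at 8 µg/ml as a sub-toxic cotreatment; 0% = median of DMSO wells and 100% = median of geldanamycin control wells; wells of about 8 µL received 7.5 nL stock; the first replicate is given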
rRNA inh HTS OD600: further read-out of rRNA inh HTS, marked with its call; OD600 change, %; measured here: OD600 growth;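 optical density of the mix in the first replicate; 0 = DMSO median and -100 = no signal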
rRNA inh HTS RFP: recorded beside rRNA inh HTS, whose call it bears; RFP signal change, %; measured here: RFP humanized mutant strains;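 first replicate; 0 = DMSO median and -100 = no signal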
Active calls of the source: *; · = not tested or not shown. Not all compounds are listed; count on the stated rates, not on these rows.

Below each compound: Bfl-1 A1 inh | B2AR ag | rRNA inh HTS | rRNA inh HTS RFP | Beta apoptosis | rRNA inh HTS OD600 | Calb FLC | T cruzi repl | LANA-H2A inh | ALR H2O2 inh
[1] Cc1ccc(C)c(NC(=O)COC(=O)c2ccc(S(=O)(=O)N3CCCCC3)cc2)c1
  0.0 | 1 | 12 | 1.3 | 1 | 13 | · | · | 1.8 | 1
[2] COc1cccc(-c2csc3nc[nH]c(=O)c23)c1
  1.2 | 2 | · | · | -1 | · | -24 | -4 | 2.2 | ·
[3] O=C(CCN1C(=O)c2ccccc2C1=O)C1=NN[C@@H]2C(=O)N(c3ccc4c(c3)OCCO4)C(=O)[C@H]12
  -0.5 | 0 | 9 | 2.8 | · | 13 | 13 | 0 | -0.3 | ·
[4] COc1ccc(C2(C(=O)N3CCOCC3)CCCC2)cc1
  0.0 | -8 | · | · | -2 | · | -2 | -7 | -1.9 | -2
[5] COc1cc(OC)c(NC(=O)CCc2nc(-c3ccc(C)cc3)no2)cc1Cl
  0.8 | 3 | · | · | 1 | · | -8 | 17 | 3.5 | -5
[6] CC(c1ccncn1)N(C)Cc1nc(Cc2ccccc2F)no1 (stereo unspecified)
  -0.4 | 0 | 6 | -0.9 | -7 | 0 | -2 | 3 | 0.6 | 3
[7] O=c1c2ccccc2nnn1COc1cccc(Cl)c1
  -5.5 | -2 | 8 | 0.6 | 0 | 6 | 27 | 2 | -2.7 | -12
[8] COc1ccc(/C=C(/NC(=O)c2ccccc2)C(=O)N2CCOCC2)cc1OC
  0.4 | 1 | -2 | -2.9 | -5 | 0 | 0 | -16 | -2.4 | -33
[9] CCCCOc1ccc(C2/C(=C(\O)c3ccc4c(c3)OCCO4)C(=O)C(=O)N2CCCN2CCOCC2)cc1 (stereo unspecified)
  1.8 | -1 | -12 | 2.7 | -11 | -11 | -3 | -17 | 3.8 | 22
[10] O=C(Cc1ccccc1)NC1CCSc2ccccc21 (stereo unspecified)
  0.3 | 2 | 15 | -12 | -8 | 21 | -7 | 3 | -0.3 | -10
[11] CCCn1c(=N)n(CC(=O)c2ccc(Cl)cc2)c2ccccc21
  -0.3 | -1 | 1 | 5.4 | 13 | -2 | 17 | 15 | 0.6 | 0
[12] COc1cccc(-c2sc3ccc(OC)cc3c2C#CC2(O)CCCCC2)c1
  -0.3 | -1 | 8 | 0.4 | -14 | 14 | · | · | -8.0 | -7
[13] COc1cc(NC(=O)C2CC(=O)N(Cc3ccco3)C2)cc(OC)c1 (stereo unspecified)
  1.0 | 0 | 6 | 0.0 | -13 | 10 | -3 | -7 | -7.3 | -4
[14] O=C(NNc1ccccc1[N+](=O)[O-])NC1CCCCC1
  0.3 | -2 | 8 | 0.9 | -6 | 6 | -7 | -14 | -1.2 | 5
[15] O=C(CSc1cccc[n+]1[O-])c1ccc(-c2ccccc2)cc1
  0.0 | 2 | -9 | 0.8 | -5 | -22 | -13 | 3 | -3.9 | 0
[16] CNc1ncc(C(=O)c2ccc(Cl)cc2)s1
  0.6 | 2 | · | · | -8 | · | -10 | -21 | -1.7 | ·
[17] O=C1C(Cl)=C(N2CCCCCC2)C(=O)N1c1ccccc1Cl
  1.1 | 14 | 0 | -2.2 | -3 | -1 | 2 | 5 | -2.5 | -1
[18] Cc1[nH]n(C(N)=S)c(=O)c1N=Nc1ccc(S(=O)(=O)N2CCCCCC2)cc1
  -4.9 | 1 | · | · | 7 | · | 104* | -1 | 2.0 | 7
[19] Cc1cc(C(=O)Nc2nncs2)oc1C
  -2.4 | 9 | 0 | -1.1 | -2 | 4 | -2 | -9 | 1.3 | ·
[20] O=c1[nH]c(SCc2ccccc2Cl)nc2c1CCC2
  0.3 | -9 | · | · | -1 | · | 31 | 2 | 3.5 | 6

Reformatted as tab-separated lines: 8 of the compounds above
No.	SMILES	Bfl-1 A1 inh	B2AR ag	rRNA inh HTS	rRNA inh HTS RFP	Beta apoptosis	rRNA inh HTS OD600	Calb FLC	T cruzi repl	LANA-H2A inh	ALR H2O2 inh
13	COc1cc(NC(=O)C2CC(=O)N(Cc3ccco3)C2)cc(OC)c1 (stereo unspecified)	1.0	0	6	0.0	-13	10	-3	-7	-7.3	-4
14	O=C(NNc1ccccc1[N+](=O)[O-])NC1CCCCC1	0.3	-2	8	0.9	-6	6	-7	-14	-1.2	5
15	O=C(CSc1cccc[n+]1[O-])c1ccc(-c2ccccc2)cc1	0.0	2	-9	0.8	-5	-22	-13	3	-3.9	0
16	CNc1ncc(C(=O)c2ccc(Cl)cc2)s1	0.6	2	·	·	-8	·	-10	-21	-1.7	·
17	O=C1C(Cl)=C(N2CCCCCC2)C(=O)N1c1ccccc1Cl	1.1	14	0	-2.2	-3	-1	2	5	-2.5	-1
18	Cc1[nH]n(C(N)=S)c(=O)c1N=Nc1ccc(S(=O)(=O)N2CCCCCC2)cc1	-4.9	1	·	·	7	·	104*	-1	2.0	7
19	Cc1cc(C(=O)Nc2nncs2)oc1C	-2.4	9	0	-1.1	-2	4	-2	-9	1.3	·
20	O=c1[nH]c(SCc2ccccc2Cl)nc2c1CCC2	0.3	-9	·	·	-1	·	31	2	3.5	6

(cont.)
Below each compound: Bfl-1 A1 inh | B2AR ag | rRNA inh HTS | rRNA inh HTS RFP | Beta apoptosis | rRNA inh HTS OD600 | Calb FLC | T cruzi repl | LANA-H2A inh | ALR H2O2 inh
[21] Cc1cc(C)n(-c2nc(NCCCO)c3c4c(sc3n2)CCCC4)n1
  -0.9 | -4 | · | · | 81* | · | -9 | 14 | 0.6 | -24
[22] CCCc1cc(=O)[nH]c(Nc2ccc3c(c2)OCCO3)n1
  -0.2 | -3 | -16* | 2.4* | -3 | 12* | -1 | -1 | 7.9 | -11
[23] NNC(=O)c1ccccc1OCCOc1ccccc1
  0.6 | -3 | 2 | 1.0 | 3 | 8 | -6 | 3 | 2.1 | 9
[24] CCOC(=O)C1(Cc2ccc(Cl)cc2)CCN(C(=O)c2sc(C)nc2C)CC1
  -0.5 | 4 | -15 | -8.2 | 14 | -23 | 2 | -2 | 5.5 | -25
[25] Cc1ccc(SCC(=O)N(C)C2CCS(=O)(=O)C2)cc1 (stereo unspecified)
  0.9 | -1 | 6 | 1.5 | -5 | 13 | 29 | -6 | -5.1 | -3
[26] CCOC(=O)CNC(=O)Cc1ccc(Cl)cc1
  -0.2 | -7 | 12 | -1.3 | -4 | 8 | 4 | -7 | -1.9 | 3
[27] CSc1oc(-c2ccccc2)nc1S(=O)(=O)c1ccc(F)cc1
  -0.2 | 2 | -7 | 1.2 | -3 | -13 | 10 | 8 | -6.2 | -5
[28] CCCOC(=O)c1c(NC(=O)/C=C/c2cnn(C)c2C)sc(C(=O)OC)c1C
  -0.4 | -4 | 12 | 1.1 | -3 | 7 | -6 | -17 | 2.8 | -1
[29] CCCc1nnc(NC(=O)CSc2nnc(-c3ccco3)n2C)s1
  -1.0 | 4 | 3 | 0.6 | -1 | 9 | -10 | -1 | -7.0 | ·
[30] Cc1[nH]c(=O)[nH]c(=O)c1/C=C/C(=O)OCC(C)C
  0.2 | 0 | 7 | -7.1 | -5 | 7 | -16 | -8 | 5.2 | ·
[31] Cc1ccc(C(=O)CCC(=O)OC(C)C(=O)NC2CCCCC2C)cc1 (stereo unspecified)
  0.0 | 2 | 2 | -1.4 | 1 | 7 | · | · | -2.3 | -5
[32] CCCCCCSc1cc(-c2nc3ccc(C)cn3c2NCc2ccccc2)ccc1OC
  0.4 | 33 | · | · | 117* | · | -2 | 37 | 6.9 | 1
[33] CCOC(=O)C1CCCN(C(=S)Nc2cc(C)cc(C)c2)C1 (stereo unspecified)
  0.9 | 2 | · | · | 4 | · | -4 | 14 | 1.8 | -18
[34] COc1ccc(CNS(=O)(=O)c2cc3c(cc2Cl)NC(=O)CO3)cc1
  0.1 | 38 | 2 | 2.3 | 7 | -14 | -4 | -3 | -4.5 | -1
[35] O=C(CS(=O)(=O)Cc1ccccc1)N1CCN(Cc2ccc3c(c2)OCO3)CC1
  2.9 | -6 | · | · | 1 | · | -10 | -9 | -1.0 | -1
[36] NS(=O)(=O)c1cc(Cl)c(Cl)c(S(N)(=O)=O)c1
  -0.1 | -6 | · | · | · | · | · | · | -1.7 | 1
[37] C=CCSc1nc(O)c(CC)c(=O)n1C(C)CC (stereo unspecified)
  1.1 | 5 | -3 | 0.8 | -8 | 11 | -6 | 2 | 0.4 | 27
[38] COc1cc2[nH]c(=O)n(CCC(=O)N3CCN(Cc4ccc5c(c4)OCO5)CC3)c(=O)c2cc1OC
  0.2 | -2 | 3 | -2.9 | 3 | -4 | 2 | -24 | 3.1 | ·
[39] COCCCn1c(=NC(C)=O)c(C#N)cc2c(=O)n3cccc(C)c3nc21
  -2.6 | 1 | 4 | 1.4 | -23 | 9 | -10 | -22 | -6.0 | -13
[40] O=C(O)c1cccc(Nc2ccnc(Nc3cccc(C(=O)O)c3)n2)c1
  -8.1 | -3 | 1 | 12 | · | 2 | 7 | -8 | 0.0 | ·
[41] Cn1cc(CN2C[C@H]3CC[C@H]2C3)c(-c2ccccc2F)n1
  -1.4 | 3 | 3 | 0.1 | -4 | -1 | 5 | -4 | 11 | -7
[42] CN1CCN(CCCNC(=O)CCC(=O)N2CCOc3ccccc32)CC1
  0.6 | -1 | -3 | -7.4 | 5 | 9 | -2 | -28 | 0.4 | -16
[43] Cc1[nH]c(-c2ccc(F)cc2)cc1C(=O)N1CCN(c2cccc(Cl)c2)CC1
  0.2 | 0 | -1 | 8.8 | -8 | -4 | 4 | 5 | 4.5 | -2
[44] OC(CN1CCCCC1)Cn1c2ccccc2c2cc(Br)ccc21 (stereo unspecified)
  1.9 | 23 | -46 | -10 | 4 | -66 | -4 | 9 | -2.2 | -23
[45] CN(C)S(=O)(=O)c1ccc(Cl)c(C(=O)Nc2ccccc2[N+](=O)[O-])c1
  1.3 | -15 | · | · | 0 | · | 6 | -20 | -3.9 | -19
[46] COc1ccccc1C(CNC(=O)COc1ccccc1C)N1CCCC1 (stereo unspecified)
  2.0 | -22 | 2 | 0.8 | -3 | -1 | 2 | -5 | -2.4 | 4
[47] CCOC(=O)C1=C(C)N=C2c3ccccc3C(=O)C2C1c1ccc(Br)cc1 (stereo unspecified)
  -1.1 | · | · | · | -5 | · | 13 | 48 | 2.1 | ·
[48] COC(=O)c1ccc(C(=O)OC)c(NC(=S)N2CCOCC2)c1
  -0.3 | 13 | 8 | 0.3 | -7 | 7 | -5 | -4 | 3.7 | 13
[49] Cc1cc(NC(=O)CS(=O)(=O)c2cn(C)c3ccccc23)no1
  0.5 | -10 | -6 | 0.2 | -7 | 4 | 7 | -8 | 7.2 | -13
